# RE007 growth inh: less growth of the S. pombe RE007 Vpr strain. Potency, µM (doses to about 92.2 µM), for inactives: top-dose activity change, negative = less growth. AID 651644. S. pombe RE007 Vpr strain, BacTiter-Glo ATP luminescence, 24 h; control for the full effect not named in the record. hit rate 0.21% among 360,000; active = well fitted falling curve with a large enough effect; inconclusive = small, poorly fitted or top-dose-only effect; inactive = no such curve, though single readings can be large or run the other way;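 note: nearly all actives have a fitted effect of over 50% in size; the assay follows cell death caused by Vpr and the record does not say whether a fall means rescue or toxicity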
#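 Fission yeast RE007 carrying one integrated HIV-1 vpr copy, seeded at OD 0.01 in PMG+AL medium with 23 nL pinned compound. Grown 24 h at 30 degrees; viability read by BacTiter-Glo luminescence after 5 min.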
# 2A StopGo: FMDV 2A StopGo reporter, luciferase signal. AID 1159524. Potency, µM (titrated, usually from 57.9 µM), for inactives: top-dose signal change, negative = less light. human cells with a luciferase reporter of 2A StopGo recoding; control for the full effect not named in the record. hit rate 1.2% among 410,000; active = well fitted falling curve with a large enough effect; inconclusive = small, poorly fitted or top-dose-only effect; inactive = no such curve, though single readings can be large or run the other way; tested in HEK293T cells; note: nearly all actives have a fitted effect of over 45% in size; luciferase light after 4 h
# The depositor's hits bear a star; ? = inconclusive; [ ] = remark or other dose. % is set by controls: 0 for no effect and ±100 for the full control effect; potency is the fitted concentration of half-maximal effect. Only part of the results is shown; the hit share may differ from the screen's.
SMILES,RE007 growth inh,2A StopGo
CCCCn1c(N)c(N(C(=O)CSc2nncn2-c2ccccc2)C2CCCC2)c(=O)[nH]c1=O,-1%,-18%
CCc1nc2ccc(C(=O)N3CCCCC3)cn2c1N(CCC(C)C)CCN(C)C,-5%,-21%
C[C@H]1Cn2cnc(C(=O)N[C@H](C)c3ccccc3)c2C(=O)N1,22%,-24%
CCCCCCCCN1C(=O)[C@H](CC(=O)N2CCC(c3ccccc3)CC2)C[C@@]2(C(=O)OC)CCCCC=C12,1%,-21%
CCCCCc1c(-c2cccc(OC)c2)ncn1CCc1ccccc1OC,-28%,28µM*
COc1nc2ccccc2nc1N1CC1,-21%,-6%
O=C(OCCO)c1c(-c2ccccc2)oc2c1C(OCCO)CCC2 (stereo not drawn),1%,-20%
Cc1ccc(Cc2c(-c3ccccc3)nc3cc(C)ccn23)cc1,-21%,8%
CCCC(=O)N1CCC1(C)C(=O)Nc1ccc(C)cc1 (stereo not drawn),8%[18.4 µM],-5%
COc1ccc(-c2c(C(=O)c3ccc(Br)cc3)[nH]c(N)c2C(=O)c2ccccc2)cc1OC,-10%,?
CC1(c2nnc(-c3cccc(Cl)c3)o2)CC(c2ccccc2)=NO1 (stereo not drawn),0%,5%
O=C(NCc1nc2ccccc2[nH]1)C1=C[C@@H](c2ccc(C(F)(F)F)cc2)C[C@@H](OCc2ccc(CO)cc2)O1,-4%,?
OC[C@@H]1CN(Cc2ccncc2)C[C@H](n2cnc3c(N4CCOCC4)ncnc32)O1,13%,-20%
Nc1ccn([C@@H]2O[C@H](CNCc3ccc(Oc4cc(-n5cccn5)ncn4)cc3)[C@@H](O)[C@H]2O)c(=O)n1,-21%,1%
O=C1C(=Cc2cccc(Cl)c2)CCc2ccccc21,-13%,35%[activator]
COc1ccccc1S(=O)(=O)N(C)C[C@@H]1OCc2cnnn2CCCC(=O)N([C@@H](C)CO)C[C@@H]1C,15%,-5%
CCC(C(=O)Nc1c(C)cccc1C)n1c(-c2cnc(C)cn2)nc2ccccc21 (stereo not drawn),0%,-7%
O=S1(=O)CC(N2CCCCC2)CN1C1CCCCC1 (stereo not drawn),-12%,-9%
Nn1c(SCC(=O)NC2CCCC2)nnc1C(F)(F)F,-14%,-16%
CC(C)(C)S(=O)(=O)N1C[C@@H]2CC/C=C\C/C=C\2[C@H]1CCO,-5%,-32%
OCC(O)C1OC(c2ccccc2)OC(CO)C1O (stereo not drawn),-3%,-20%
CCOc1ccccc1N1CC(C(=O)Nc2cc(S(=O)(=O)N3CCOCC3)ccc2OC(C)C)CC1=O (stereo not drawn),-3%,-12%
C[C@@H]1CN([C@@H](C)CO)C(=O)c2cc(NS(C)(=O)=O)ccc2O[C@@H](C)CCCCO[C@H]1CN(C)Cc1ccc2c(c1)OCO2,5%,-14%
CCN(CC)C(=O)c1csc(COCCO)n1,6%,-25%
CCC(=O)N1Cc2cc(C(=O)NCc3cccc(F)c3)nc(-c3cccc(C4=CCCC4)c3)c2[C@H]1CCO,-6%,-21%

# Filtered by structure: the compounds so far with a CF3 group (two)
SMILES,RE007 growth inh,2A StopGo
O=C(NCc1nc2ccccc2[nH]1)C1=C[C@@H](c2ccc(C(F)(F)F)cc2)C[C@@H](OCc2ccc(CO)cc2)O1,-4%,?
Nn1c(SCC(=O)NC2CCCC2)nnc1C(F)(F)F,-14%,-16%

# The list goes on.
SMILES,RE007 growth inh,2A StopGo
COc1ccc(CCNC(=O)CNC(=O)N2CC(=O)Nc3ccccc32)cc1OC,6%,-23%
O=C(c1cccc(S(=O)(=O)N2CCCCCC2)c1)N1CCN(Cc2ccccc2)CC1,-17%,-20%
CC(=O)N1Cc2cc(C(=O)NCc3cccc(F)c3)nc(-c3cccc(C4=CCCCC4)c3)c2[C@H]1CCO,3%,-22%
COc1cc(OC)c(OC)cc1CNC(=O)c1cc(S(=O)(=O)N(C)c2ccccc2OC)ccc1C,-8%,28µM*
COCCCn1cc(CN(C)C2CN(Cc3cn(CCCOC)nn3)S(=O)(=O)C2)nn1 (stereo not drawn),3%,1%
NC(=O)c1ccc(NCCc2ccco2)cc1,5%,10%
COc1ccccc1NC(=O)COC(=O)Cn1c(C)csc1=O,17%,-9%
Cc1ccc(S(=O)(=O)N2[C@@H](CO)CO[C@H]2CC(=O)c2cccc3ccccc23)cc1,-3%,-11%
O=C(NCc1cccnc1)c1cc(C2CCCCN2S(=O)(=O)c2cccc3cccnc23)on1 (stereo not drawn),-9%,-11%
CC(=O)Oc1ccc(Cn2c(C)c(C(=O)NCc3cccc(C(F)(F)F)c3)sc2=O)cc1,-13%[18.4 µM],?
CC(=O)N1CCN(Cc2cc(=O)oc3ccccc23)CC1,-6%,-11%
O=C1OC(Cc2ccccc2)(c2ccccc2)c2ccccc21 (stereo not drawn),4%,0%
OC[C@@H]1CN(Cc2cccs2)C[C@H](n2cnc3c(NC4CCCC4)ncnc32)O1,-1%,1%
CCNC(=O)C1(C)CCN(C(=O)c2cc(F)ccc2C)C1 (stereo not drawn),-4%,-20%
CN1OC[C@@H]2CN(C(=O)C(C)(C)C)[C@H](c3ccc(-n4ccnc4)cc3)C[C@@H]21,2%,-10%
N#Cc1ccc(S(=O)(=O)NC[C@H]2O[C@@H](n3ccc(N)nc3=O)[C@H](O)[C@@H]2O)cc1,-12%,-6%
O=C(NCC1CC1)c1cccc2c(-c3ccc(F)c(F)c3)coc12,-10%,10%
Cc1cccc(-c2ccc3[nH]c4c(c3c2)CCN2C[C@@H]([C@H](C)OC(=O)Nc3ccccc3C)[C@@H](N(C)C(=O)Nc3ccccc3C)C[C@@H]42)c1,-8%,0%
CCNC(=O)C1(C)CCCN(C(=O)Cc2ccc(OC)c(OC)c2)C1 (stereo not drawn),4%,-2%
O=C1NCCN1CCNc1nc(NCc2ccccc2)nc2ccsc12,-27%,-19%
CCC[C@H]1CN(Cc2cccnc2)C(=O)[C@@H]1CC(=O)Nc1ccc(Br)cc1,-24%,6%
COc1ccc(CCN2CC(C(=O)NCc3cn(C)nc3C)CCC2=O)cc1 (stereo not drawn),-4%,2%
COc1ccc(Cc2c(-c3cccc(Cl)c3)nc3ccc(Cl)cn23)c(C)c1,-10%,19%
CN(C)S(=O)(=O)c1cccc(C(=O)N2CCN(S(=O)(=O)c3ccc4c(c3)OCCO4)CC2)c1,-2%,-29%
CN(C(=O)c1cccc(NC(=O)Cc2ccc(NC(=O)C3CCN(S(=O)(=O)c4cccc([N+](=O)[O-])c4)CC3)cc2)c1)C1CC1,10%,-14%

# In the list so far, 2 have bromine:
SMILES,RE007 growth inh,2A StopGo
COc1ccc(-c2c(C(=O)c3ccc(Br)cc3)[nH]c(N)c2C(=O)c2ccccc2)cc1OC,-10%,?
CCC[C@H]1CN(Cc2cccnc2)C(=O)[C@@H]1CC(=O)Nc1ccc(Br)cc1,-24%,6%

# Later entries.
SMILES,RE007 growth inh,2A StopGo
C[C@H]1CN([C@@H](C)CO)C(=O)CCCn2cc(nn2)CO[C@@H]1CN(C)S(=O)(=O)c1ccc(Cl)cc1,-18%,-21%
CN(C(=O)CN1CCN(c2cc(-c3ccc(OCc4ccccc4)cc3)ncn2)CC1)c1ccccc1,-13%,25µM*
Cc1cccc(NC(=O)c2nc[nH]c2C(=O)N[C@H](C)CO)c1,-12%,-10%
O=C(O)C1C=CCC(C(=O)O)C1 (stereo not drawn),-17%,-5%
Cc1cccc(-n2c(C)nc3cc(C(=O)NCCN4CCOCC4)ccc32)c1,1%,-10%
Cc1cccc(NS(=O)(=O)c2ccc(C)c(C(=O)NNC(=O)c3csc(N4CCOCC4)n3)c2)c1,18%,9%
CCCOc1ccc(F)cc1-c1cc(C(=O)NCc2ccc(C(F)(F)F)cc2)[nH]n1,13%,-15%
CCCc1nc2c3ccccc3ccn2c1Cc1cccc(F)c1,?,0%
CC1(C(=O)Nc2cccc(NS(C)(=O)=O)c2)Cc2c(-c3ccc(C(N)=O)cc3)ccnc2O1 (stereo not drawn),-16%,-12%
COc1cccc(C(O)c2ncc(-c3cccc(C(F)(F)F)c3)[nH]2)c1 (stereo not drawn),5%,16%
CCOC(=O)C1(C)CCCN(C(=O)c2c(F)ccc(C)c2F)C1 (stereo not drawn),1%,-15%
C(=C\c1ccccc1)/CN1CCN(C(CCc2ccccc2)c2nnnn2C2CCCC2)CC1 (stereo not drawn),-15%,-15%
CC1=C(C#N)C(=O)NC1(C)O (stereo not drawn),0%,-25%
COc1ccc(NS(=O)(=O)c2ccc(C)c(C(=O)NCCCn3ccnc3)c2)cc1,-5%,-1%
CC(C)(C)n1nnnc1C(c1ccccc1OC(F)(F)F)N1CCN(C/C=C/c2ccccc2)CC1 (stereo not drawn),-28%,?
Cc1ccc(NC(=O)C2(C)CCCN(C(C)C)C2)cc1C (stereo not drawn),-21%,-11%
O=C(NCc1ccc(F)cc1)c1cc(C2CCCN(S(=O)(=O)c3ccccc3)C2)on1 (stereo not drawn),3%,-23%
CCCCN(CCCC)CCCNC(=O)C1CC(c2cc(C(F)(F)F)cc(C(F)(F)F)c2)=NO1 (stereo not drawn),-5%,18%
CC1(C)CC(=O)CC(C)(C)N1O,3%,0%
C[C@H](CO)N1C[C@H](C)[C@@H](CN(C)S(=O)(=O)c2ccc3ccccc3c2)OCc2cnnn2CCCC1=O,19%,-13%
CCN(c1ccc(OC)cc1)S(=O)(=O)N1CCCC(C(=O)NCc2ccc(OC(C)C)cc2)C1 (stereo not drawn),-11%,?
O=C(NCC(O)c1nc2ccccc2[nH]1)c1cc2ccccc2[nH]1 (stereo not drawn),-2%,-12%
O=C(Nc1nnc([C@H]2C[C@H](O)[C@@H](CO)O2)s1)c1cccc(Oc2ccccc2)c1,6%[18.4 µM],2%
O=C(O)c1ccccc1N=Nc1ccc(O)cc1,-3%,-22%
CCNC(=O)C1(C)CCN(C(=O)c2ccc(C(F)(F)F)cc2)C1 (stereo not drawn),6%,-7%

# Complete entries from above. Values in the order: RE007 growth inh | 2A StopGo
# CCNC(=O)C1(C)CCN(C(=O)c2ccc(C(F)(F)F)cc2)C1 (stereo not drawn) across the screens: 6% | -7%
# O=C(O)c1ccccc1N=Nc1ccc(O)cc1 across the screens: -3% | -22%
# O=C(NCc1ccc(F)cc1)c1cc(C2CCCN(S(=O)(=O)c3ccccc3)C2)on1 (stereo not drawn) across the screens: 3% | -23%

# Further compounds.
SMILES,RE007 growth inh,2A StopGo
CCOC(=O)N(C)c1c(CC)nc2c(OCc3ccc(S(C)(=O)=O)cc3)cccn12,-7%[18.4 µM],-25%
COc1cccc(Cn2cnc(-c3ccccc3OC)c2C2CC2)c1,?,?
Cc1ccc(S(=O)(=O)N2CC3=C(C2)C2CC2(C)C3)cc1 (stereo not drawn),5%,-10%
CCCCNC(=O)C1(C)CCCCN1Cc1ccc2ccccc2c1 (stereo not drawn),-18%[18.4 µM],-16%
O=C(Nc1cccc(OC(F)(F)F)c1)c1cccc2c(-c3cccnc3)coc12,-25%,-24%
CCC/C=C1/CCCOC(C(=O)NCc2ccccc2)(C(F)(F)F)C1 (stereo not drawn),4%,-15%
CCOC(=O)C1(C)CCN1C(=O)/C=C/c1ccccc1 (stereo not drawn),-16%,-1%
COc1cc(/C=C2/SC(=S)N(CCC(=O)Nc3cccnc3)C2=O)cc(OC)c1OC,0%,?
O=C1NC2C3CC(c4ccccc43)C12 (stereo not drawn),1%,-22%
COc1ccc(-c2oc3c(c2-c2cnc(OC)nc2)C(O)CC3)cc1 (stereo not drawn),3%,-20%
C[C@@H]1CN([C@@H](C)CO)C(=O)CCCn2nncc2CO[C@@H]1CN(C)S(=O)(=O)c1cccc(C#N)c1,13%,-10%
O=C(NC1CCCCC1)C(CCc1ccccc1)N1CCOCC1 (stereo not drawn),3%,-10%
Cc1ccc(-c2nc3ccc(C)cn3c2Cc2cccc(Cl)c2)cc1,?,17%
Nc1ncnc2c1ncn2[C@@H]1O[C@H](C(=O)NCC(F)(F)F)[C@@H](O)[C@H]1O,17%,-10%
CC1(C(=O)NCCCN2CCCC2=O)CCN1CCc1ccccc1 (stereo not drawn),-6%[18.4 µM],-7%
Nc1[nH]c(C(=O)c2ccccc2)c(-c2ccc(C(F)(F)F)cc2)c1C(=O)NCc1ccc(Cl)cc1Cl,27%,-7%
O=C(NCc1cccnc1)c1cc(C2CCCCN2C(=O)c2ccc3ccccc3c2)on1 (stereo not drawn),10%,0%
COc1ccc(C(=O)N2CCN(S(=O)(=O)c3ccc(C)cc3C)CC2)cc1S(=O)(=O)N1CCOCC1,-1%,-1%
CC(=O)c1ccc(OCc2nnn(CC(=O)NS(=O)(=O)c3ccc(C)cc3)c2-c2ccccc2)cc1,4%,-14%
Cc1c(C(=O)NCc2ccc3c(c2)OCO3)sc(=O)n1Cc1ccc(-c2ccccc2)cc1,3%[18.4 µM],-13%
O=C(N[C@H]1CC[C@H](CCNS(=O)(=O)c2ccc(Cl)cc2)O[C@@H]1CO)c1cccc(F)c1,11%,?
Cc1ccc(NC(=O)COC(=O)CCc2c[nH]c3ccccc23)cc1,3%,-2%
COCCNC(=O)C1(C)CCN(C(=O)c2cc(C)nn2C(C)(C)C)C1 (stereo not drawn),-4%[18.4 µM],-6%
CC(c1nc2ccccc2c(=O)[nH]1)N1CCN(S(=O)(=O)c2ccc(F)c(Cl)c2)CC1 (stereo not drawn),-5%,?
